Screening data: PubChem, National Center for Advancing Translational Sciences (NCATS)
TRPML1 blocker = qHTS for Inhibitors of the Human Mucolipin Transient Receptor Potential 1 (TRPML1); TRPML1-inducible cells, Ca2+ dye fluorescence, FDSS; stronger effect = lower value; inhibition of EC80 agonist-evoked calcium signal; activity change, negative = inhibition, % (concentration not given with the values); Mucolipin-1 (Homo sapiens), Q9GZU1; 0.02% of 390,000 active; in the data active means activity change below about -50%; inconclusive means about -30% to -50%; inactive means above about -30%;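 note: stimulus is agonist 54-4 at its EC80 concentration; % is set by controls: 0 for no effect and ±100 for the full control effect; compound concentration not given in the record; the text of the record puts the active cut at -80%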
Target sequence (Q9GZU1 whole entry, looked up): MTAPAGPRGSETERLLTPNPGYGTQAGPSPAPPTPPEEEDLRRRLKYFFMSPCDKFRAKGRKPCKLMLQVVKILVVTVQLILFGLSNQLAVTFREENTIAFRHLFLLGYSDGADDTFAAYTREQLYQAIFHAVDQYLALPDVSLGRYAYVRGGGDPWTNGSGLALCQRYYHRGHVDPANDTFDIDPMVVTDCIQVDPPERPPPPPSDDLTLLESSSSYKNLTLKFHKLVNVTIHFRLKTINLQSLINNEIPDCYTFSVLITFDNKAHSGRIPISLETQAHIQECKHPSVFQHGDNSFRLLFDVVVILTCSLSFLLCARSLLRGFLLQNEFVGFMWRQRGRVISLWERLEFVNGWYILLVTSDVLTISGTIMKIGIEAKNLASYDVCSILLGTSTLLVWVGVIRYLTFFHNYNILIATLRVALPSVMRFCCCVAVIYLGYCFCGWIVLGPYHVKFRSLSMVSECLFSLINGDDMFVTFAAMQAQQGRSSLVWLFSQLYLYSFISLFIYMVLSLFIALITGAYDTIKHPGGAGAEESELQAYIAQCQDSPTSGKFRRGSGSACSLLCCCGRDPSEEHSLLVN
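TRPML1-DL cells, Tet-induced overnight (~16 h, 37 °C) at 1,500 cells/well, were loaded with Ca8 no-wash dye plus quencher for 45-90 min at room temperature. Compounds were pinned during FDSS kinetic reading; agonist 54-4 at EC80 (4 uM final) then added.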
TRPV1 PAM = HTS Assay for Compounds that Act as Potentiators of the Vanilloid Receptor 1; TRPV1-expressing cells, Fluo-8 calcium influx, capsaicin EC20 potentiation; host cell line not named in the record; control for the full effect not named in the record; potentiation, % at 8.33 µM; AID 540277, 2011; Transient receptor potential cation channel subfamily V member 1 (Homo sapiens), Q8NER1; 0.02% of 320,000 active; active means potentiation above 80%; inconclusive means 30% to 80%; inactive means below 30%; note: 0% is about no effect
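Fluo-8 calcium influx in TRPV1-expressing cells, kinetic read (ex 480/em 520 nm). Compound added and read 3 min for agonist activity, followed by capsaicin at EC20 final and 2 min further read for enhancement.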
gsp agonist = qHTS for Agonist of gsp, the Etiologic Mutation Responsible for Fibrous Dysplasia/McCune-Albright Syndrome: qHTS | gsp mutant cells, cAMP HTRF, 30 min; control for the full effect not named in the record | Potency, µM (doses to about 76.9 µM), for the others: at the top dose activation (cAMP increase), actives largely listed as activators | 0.13% of 340,000 active | AID 624287, 2012; active = well fitted activation curve with a large enough effect; inconclusive = small, poorly fitted or top-dose-only effect, or another doubt; inactive = no such curve, though single readings can be large or run the other way; cell line not stated here;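 note: phosphodiesterase inhibitor Ro 20-1724 added with compounds to block cAMP breakdown; potency is the fitted concentration of half-maximal effect; nearly all actives have a fitted effect of over 60% in size; about a fifth of the inactives were tested at one dose only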
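Cells in DMEM/10% FBS with G418 were pretreated with compounds in DMSO plus […] (300 uM stock) for 30 min at 37C. cAMP was measured by HTRF (cAMP-d2 plus anti-cAMP antibody-K) after 30 min at room temperature.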
ClpP mod = qHTS Assay for Activators of ClpP; ATP-dependent Clp protease proteolytic subunit (Bacillus subtilis (strain 168)), P80244; purified B. subtilis ClpP, FRET peptide cleavage, 20 min; Potency, µM (series often up to 57.5 µM), for the others: top-dose activity change, negative = active; 1.9% of 340,000 active; active = well fitted falling curve with a large enough effect; inconclusive = small, poorly fitted or top-dose-only effect; inactive = no such curve, though single readings can be large or run the other way; note: potency is the fitted concentration of half-maximal effect; the source files actives as falling curves though it sought activators and does not explain the sign; nearly all actives have a fitted effect of over 65% in size; many hits overshoot -100%
Target sequence (P80244 whole entry, looked up): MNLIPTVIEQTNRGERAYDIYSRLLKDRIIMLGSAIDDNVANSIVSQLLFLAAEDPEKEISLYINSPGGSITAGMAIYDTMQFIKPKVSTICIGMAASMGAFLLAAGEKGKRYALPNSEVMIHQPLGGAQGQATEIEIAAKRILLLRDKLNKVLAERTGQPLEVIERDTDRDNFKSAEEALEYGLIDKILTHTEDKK
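FRET quenching reversal measured ClpP activation: 10 microg/mL B. subtilis ClpP at pH 8 with the FRET-FV decapeptide, read at 430 nm after 320 nm excitation. The 20-min minus 0-min signal was scaled between DMSO/no-enzyme wells and ADEP (5.8 microM final).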
gsp antag = qHTS for Antagonists of gsp, the Etiologic Mutation Responsible for Fibrous Dysplasia/McCune-Albright Syndrome: qHTS; gsp-mutant cells, cAMP HTRF, 30 min; control for the full effect not named in the record; Potency, µM (doses to about 76.9 µM), inactives show at the highest dose activity change, negative = inhibition, usual class: inhibitors; 0.4% of 340,000 active; AID 624288, 2012; active = falling curve of any shape with a large fitted effect; inconclusive = falling curve, mostly with a smaller effect; inactive = flat or rising curve; cell line not stated here;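 note: intracellular cAMP measured with PDE inhibitor Ro 20-1724 present during compound exposure; potency is the fitted concentration of half-maximal effect; % is set by controls: 0 for no effect and ±100 for the full control effect; nearly all actives have a fitted effect of over 65% in size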
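G418-selected cells were plated in DMEM/10% FBS for 16-24 h at 37C, then treated with compounds plus the PDE inhibitor […] (300 uM solution added) for 30 min at 37C. Intracellular cAMP was measured by HTRF after 30 min lysis at room temperature.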
Sfp inh = qHTS Assay for Inhibitors of Bacillus subtilis Sfp phosphopantetheinyl transferase (PPTase) | 4'-phosphopantetheinyl transferase ffp (Bacillus subtilis), Q9F4F7 | Biochemical Sfp PPTase activity, qHTS | Potency, µM, for inactives: max response, negative = inhibition, actives largely listed as inhibitors | 3.5% of 310,000 active; active = well fitted inhibition curve with a large enough effect; inconclusive = small, poorly fitted or top-dose-only effect, or another doubt; inactive = no such curve, though single readings can be large or run the other way;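 note: the enzyme is Sfp with the accession as filed and its product quenches rhodamine fluorescence; potency is the fitted concentration of half-maximal effect; 0% = enzyme reaction without inhibitor and -100% = no enzyme wells; top concentration of the series not given in the record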
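After 15 min at room temperature with compound, 15 nM Sfp received 5 uM rhodamine-CoA plus 12.5 uM BHQ-2-ybbR (50 mM Hepes pH 7.6, 10 mM MgCl2). Rate came from the fluorescence difference over 30 min, ex 525/em 598 nm.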
Menin MLL FP FL = qHTS Assay for Inhibitors Targeting the Menin-MLL Interaction in MLL Related Leukemias: Competition With Fluorescein Labeled MLL-derived Peptide | FP activity change, % at 61.4 µM | AID 1766, 2009 | 290,000 tested, under 10 active | Fluorescence polarization, fluorescein-MLL peptide displacement from menin; inconclusive = falling polarisation curve, or a change in total fluorescence; inactive = total fluorescence flat and polarisation flat or rising; no compound was filed as active; the % refers to the polarisation; negative = inhibition;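 note: % of control where 0% means no effect; inhibitors lower the polarisation; unlabelled MLL peptide was the positive control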
* hit, by the source's call; ? = inconclusive; nt = not tested or not shown; [ ] = remark or other dose.

SMILES | TRPML1 blocker | TRPV1 PAM | gsp agonist | ClpP mod | gsp antag | Sfp inh | Menin MLL FP FL
Cc1cc(C)n(-c2ccc(C(=O)OCC(=O)Nc3ccccc3[N+](=O)[O-])cc2)n1 | 3 | 21 | -18%[15.4 µM] | -3.7% | 6% | 8% | -0.9
COCCNC(=O)C(c1ccc(F)cc1)N(Cc1ccco1)C(=O)CCC(=O)Nc1ccccn1 (configuration not stated) | 4 | 9 | -20% | nt | 8% | 16% | 1.2
CC(C)CC1NC(=O)c2cccnc2-n2c1nc1cc(F)c(F)cc1c2=O (configuration not stated) | 0 | nt | -13% | -1.1% | nt | nt | nt
O=C(Nc1nnc(-c2ccccn2)o1)c1cccc(Cl)c1 | 9 | 8 | 16%[15.4 µM] | nt | -15% | 6% | 0.2
CCOc1ccc2[nH]c(C(=O)N/N=C/c3ccc(OC)cc3)cc2c1 | 12 | 10 | 12%[15.4 µM] | nt | -1% | 10% | -3.4
S=C(Nc1ccccc1)Nc1ccc(Cl)cc1Cl | -12 | 5 | -1% | -1.5% | 2% | -11% | 1.5
O=C(O)CCSc1nnc(-c2ccccc2)n1-c1ccccc1 | 3 | 22 | -1% | -2.5% | -3% | 26% | -3.1
CCc1ccc(Nc2nnc(SCC(=O)c3ccc4c(c3)NC(=O)CO4)s2)cc1 | nt | -3 | nt | nt | nt | 3% | 1.9
Cc1oc2nc(SCC(=O)NCc3cccnc3)nc(N)c2c1C | -3 | -2 | 3% | -4.3% | 2% | 16% | 1.9
CCOC(=O)c1c(NC(=O)CN2CCN(C(=O)c3ccco3)CC2)sc2c1CCCC2 | -11 | -10 | -7% | -3.1% | 12% | ? | 4.9
O=[N+]([O-])c1c(NCCCO)cc(Sc2nc3ccccc3s2)c2nonc12 | 9 | nt | -10% | -3.7% | 9% | -4% | 1.5
CC(C)c1cc(C(=O)N2CCCC(CCC(=O)N3CCN(c4ccccn4)CC3)C2)no1 (configuration not stated) | 4 | 14 | -13%[15.4 µM] | nt | -27% | 9% | -2.9
CCOC(=O)C1CCN(S(=O)(=O)c2ccccc2)CC1 | 9 | -1 | 29% | -2.9% | 9% | 14% | -2.5
COC(=O)/C=C(\C)NC(=O)c1cccs1 | -4 | -3 | -7% | 0.0% | 4% | 20% | 4.6
Cc1ccccc1CNC(=O)CN(c1ccccc1Cl)S(C)(=O)=O | -13 | -16 | -9% | -2.6% | -16% | 18% | 1.4
CC1=NN(Cc2ccccc2)C(=O)C1C(c1ccc(Cl)cc1)C(C#N)C#N (configuration not stated) | 12 | 3 | -4% | ? | 13% | -25% | 0.0
O=C(Nc1ncccn1)C1=C(O)c2ccccc2S(=O)(=O)N1Cc1ccccc1 | 39 | 13 | -19% | -0.1% | 0% | -13% | -7.2
O=C(Nc1ccccn1)c1ccc(=O)[nH]n1 | -11 | 7 | -22% | -1.9% | -10% | 6% | 1.2
COc1ccc(C(=O)Nc2c(N)nc[nH]c2=O)cc1 | -2 | nt | -13% | nt | 9% | nt | nt
CSCCC(NC=O)C(=O)NC(C)C(=O)O (configuration not stated) | 3 | nt | nt | -2.4% | -2% | nt | nt
Cc1cc(C)nc(NC(=O)c2ccc(C)c(C)c2)n1 | -3 | 1 | 12%[15.4 µM] | -0.5% | -6% | 19% | 3.1
O=C(c1cccnc1)C1CCCN(Cc2nc(Cc3ccccc3F)no2)C1 (configuration not stated) | 38 | 4 | -28% | nt | 5% | -12% | 1.2
NC(=O)N/N=C/c1cccc(C(F)(F)F)c1 | -9 | -2 | -21% | -0.3% | 10% | 9% | -3.7
O=C(c1c(F)cccc1F)N1CCN(c2cccc(C(F)(F)F)c2)CC1 | 0 | -9 | -49%[inhibitor] | -2.7% | 1% | 1% | -0.2
COc1ccc(-c2nnc3ccc(SCC(=O)NCc4ccco4)nn23)cc1 | -4 | 2 | 33% | -0.3% | 12% | -8% | 3.6
Oc1c(Cl)cc(Cl)cc1/C=N/c1ncn[nH]1 | -3 | 6 | 3% | -4.9% | -8% | -3% | ?
COc1ccc(CC(=O)Nc2c3c(nn2-c2cccc(C)c2C)CS(=O)C3)cc1OC (configuration not stated) | -17 | 1 | -9%[15.4 µM] | -1.5% | 2% | 6% | 3.9
COc1ccc(C(=O)Cn2cc[n+](C)c2)cc1 | 1 | -7 | 1%[15.4 µM] | 0.5% | 12% | 5% | -1.2
CC(C)c1ccc(NC(=O)C2C3C=CC4(CN(Cc5cccnc5)C(=O)C24)O3)cc1 (configuration not stated) | 17 | 9 | -4% | -0.7% | -3% | 9% | 1.5
COc1ccc(CC2(CO)CCN(Cc3ccc4c(c3)CCO4)CC2)cc1 | 72 | -6 | -13%[15.4 µM] | nt | 13% | -3% | -4.2
CCCOc1c(Br)cc(C2C3=C(CCCC3=O)N(CC)C3=C2C(=O)CCC3)cc1OC | 39 | -34 | -19% | nt | -26% | -16% | 2.3
COCCN(Cc1cc2cc3c(cc2nc1Cl)OCO3)C(C)=O | 12 | 11 | -1% | ? | 4% | 9% | 0.0
Cn1c(=O)c2c(nc(SCCN3CCOCC3)n2Cc2ccccc2Cl)n(C)c1=O | -7 | -9 | 24% | 1.6% | -5% | 8% | 0.8
Cn1c(CS(=O)Cc2c(Cl)cccc2Cl)nnc1SCc1ccc(Cl)cc1 (configuration not stated) | -6 | 4 | -10% | -0.5% | -10% | -6% | 1.4
COCC(C)OC(=O)C(C#N)c1nc2ccccc2nc1N1CCN(Cc2ccccc2)CC1 (configuration not stated) | -5 | nt | 5% | -17% | -6% | -19% | ?
C[C@H](NC(=O)[C@@H]1Cc2ccccc2CN1C(=O)OC(C)(C)C)C(=O)NCc1ccco1 | -9 | 3 | -26% | -1.8% | 8% | -10% | nt
COC(=O)c1ccccc1NC(=O)Cn1cnc2c(cnn2-c2ccc(C)c(C)c2)c1=O | -20 | nt | 19% | ? | 10% | nt | nt
Nc1nc(-c2ccccc2)c(N=Nc2cccc3ccccc23)s1 | 7 | 0 | -47%[inhibitor] | -0.6% | 1% | 13% | -1.1
CCCN(CCC)S(=O)(=O)c1ccc(C(=O)Nc2cc3oc4ccccc4c3cc2OC)cc1 | -17 | -7 | 0% | -7.5% | 7% | 4% | 2.4
COc1ccc(-c2ccc(C3C4C=CCCC4(C)C(=O)N3Cc3ccccc3)c(F)c2)cc1OC (configuration not stated) | 76 | nt | nt | nt | nt | ? | 2.0
COc1ccc(-c2nnc(CSc3nc4ccccc4c(=O)n3CC3CCCO3)o2)cc1OC (configuration not stated) | 17 | 10 | 26%[15.4 µM] | nt | 2% | 3% | 0.2
CCC(C)(CN(C)C)OC(=O)c1ccccc1 (configuration not stated) | 4 | 8 | nt | 1.5% | -1% | nt | nt
COc1ccc(NC(=O)COC(=O)CCCOc2ccc(Cl)cc2Cl)cc1Cl | 2 | 20 | -11%[15.4 µM] | nt | 4% | 6% | 2.3
CCOC(=O)N1CCN(S(=O)(=O)N2CCCC(C(=O)NCc3ccc(F)cc3)C2)CC1 (configuration not stated) | 19 | 5 | ? | -0.6% | 0% | 13% | -1.9
Cc1ccc(S(=O)(=O)NCC(=O)N(CC(=O)NC2CCCC2)CC2CCCO2)cc1 (configuration not stated) | -18 | 2 | 7%[15.4 µM] | 4.7% | -7% | -7% | 0.6
O=C1NCC2=C1C(c1ccc(Br)cc1)Nc1ccccc1N2 (configuration not stated) | 24 | nt | 1% | -12% | 0% | -1% | 2.7
COc1cccc(NC(=S)NCCN2CCOCC2)c1 | 10 | 9 | 1% | -1.5% | 0% | 5% | 3.9
CC1CCCC(C)N1C(=O)COc1cccc(Oc2ccccc2)c1 (configuration not stated) | -2 | nt | -2% | 1.0% | ? | nt | nt
O=C(Nc1ccc(Nc2ccccc2)cc1)c1ccc(F)cc1 | -3 | 5 | -3% | -1.7% | -7% | 6% | 0.7
Cc1cc2oc(=O)cc(CN3CCCCC3C)c2cc1Cl (configuration not stated) | nt | -14 | -45%[inhibitor] | -12% | -3% | 2% | 10
Cc1c(NC(=O)CSc2nnc(-c3cccc(Cl)c3)o2)c(=O)n(-c2ccccc2)n1C | 15 | -5 | 8% | -4.7% | 3% | 5% | 3.3
CCOC(=O)Nc1nc2ccccc2s1 | 20 | -10 | 1% | -4.2% | 13% | 29% | -1.6
CCc1nnc(NC(=O)CCC(=O)NCc2ccccc2Cl)s1 | 12 | 13 | -1% | -0.3% | 16% | 9% | -0.7
COc1ccc(C2N(C(=O)CN3CCCC3)CCCN2S(=O)(=O)c2ccccc2)cc1 (configuration not stated) | -7 | 15 | -47% | nt | 6% | 15% | -16
O=C1CC(c2ccccc2)c2c(O)cc(O)cc2O1 (configuration not stated) | -2 | -2 | -3% | -1.8% | -6% | 13% | 1.3
Cc1ccn2c(NC3CCCCC3)c(-c3cccc(SC4CCCCC4)c3)nc2c1 | 10 | nt | nt | ? | -4% | nt | nt
CCN(CCCC(=O)c1ccc(F)cc1)CCc1ccccc1 | -6 | -9 | -78%[inhibitor] | nt | -4% | 3% | 2.5

Entries of single compounds, looked up by structure:
COc1ccc(-c2nnc3ccc(SCC(=O)NCc4ccco4)nn23)cc1 is listed with TRPML1 blocker: -4; TRPV1 PAM: 2; gsp agonist: 33%; ClpP mod: -0.3%; gsp antag: 12%; Sfp inh: -8%; Menin MLL FP FL: 3.6
CCC(C)(CN(C)C)OC(=O)c1ccccc1 (configuration not stated) is listed with TRPML1 blocker: 4; TRPV1 PAM: 8; gsp agonist: nt; ClpP mod: 1.5%; gsp antag: -1%; Sfp inh: nt; Menin MLL FP FL: nt
